Arbovirus anti: antivirals against arbovirus infection; arbovirus infection cell-based antiviral screen; inhibition, % at 10 µM; actives 0.37% (n = 200,000);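 active means inhibition from about 30%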;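 further: bluetongue infection of BSR cells; cell survival read as ATP light after 72 h; 0% = infected wells without compound and 100% = uninfected wells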
RecA splice inh: inhibitors of M. tuberculosis RecA intein splicing | cell-free RecA intein splicing, fluorescence | inhibition, %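 (about 9 µM by stock and volumes)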 | actives 0.75% (n = 290,000) | AID 2221; in the data active means inhibition above about 30%; inconclusive means no clear call, values can overlap the other calls;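 further: 0% = vehicle wells and 100% = reference inhibitor control wells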
Target sequence (P9WHJ3 whole entry, looked up, canonical isoform): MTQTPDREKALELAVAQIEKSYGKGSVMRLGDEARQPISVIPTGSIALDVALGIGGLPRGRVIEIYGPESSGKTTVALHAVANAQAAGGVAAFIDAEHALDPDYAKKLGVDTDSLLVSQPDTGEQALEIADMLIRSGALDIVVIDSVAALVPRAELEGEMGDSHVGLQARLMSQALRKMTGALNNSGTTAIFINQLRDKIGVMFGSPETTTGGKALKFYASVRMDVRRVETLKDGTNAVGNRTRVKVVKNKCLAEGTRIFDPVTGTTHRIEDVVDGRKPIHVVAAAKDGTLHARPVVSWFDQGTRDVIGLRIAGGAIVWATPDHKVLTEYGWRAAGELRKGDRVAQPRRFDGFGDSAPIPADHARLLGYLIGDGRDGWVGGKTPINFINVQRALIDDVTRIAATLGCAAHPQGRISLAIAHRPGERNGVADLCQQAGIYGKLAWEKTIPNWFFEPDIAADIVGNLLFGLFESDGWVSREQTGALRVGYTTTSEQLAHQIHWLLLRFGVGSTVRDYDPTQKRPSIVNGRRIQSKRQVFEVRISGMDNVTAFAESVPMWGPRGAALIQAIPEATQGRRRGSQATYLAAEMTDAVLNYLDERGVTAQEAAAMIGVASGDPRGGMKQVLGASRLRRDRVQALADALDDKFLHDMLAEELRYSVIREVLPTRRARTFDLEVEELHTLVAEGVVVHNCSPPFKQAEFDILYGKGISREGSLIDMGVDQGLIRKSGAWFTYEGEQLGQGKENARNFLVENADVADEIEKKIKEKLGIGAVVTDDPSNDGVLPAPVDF
Mtb H37Rv: M. tuberculosis H37Rv growth inhibitors, H37Rv strain (AID 1626); M. tuberculosis H37Rv growth inhibition; higher % means a stronger effect; inhibition, % at 10 µM; hits with a dose series show IC50 in µM; actives 0.95% (n = 220,000);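 active means confirmed in a dose series; inconclusive means inhibition above 80% but not taken into the dose series; inactive means below 80% or under 30% at every dose of the series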;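 further: bacteria incubated seven days before Alamar blue readout; 0% = bacteria only wells and 100% = bacteria with antibiotic wells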
YopH inh: blocks Yersinia enterocolitica YopH tyrosine phosphatase; actives 0.16% (n = 140,000); inhibition, %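 (about 10 µM by stock and volumes)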; fluorescence Ex485/Em525; AID 898;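 active means inhibition of 50% or more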;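 further: controls were vehicle for no effect and minimum signal wells for full effect; inactives centre near -20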
Mtb bLac sens: beta-lactam sensitization of Mtb H37Rv | M. tuberculosis H37Rv growth with meropenem, percent inhibition; hits of this screen are not shown here | inhibition, % at 25 µM | actives 0.27% (n = 330,000) | AID 434955;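 active means about 74% or more and at least 40 points above the plate without the antibiotic, then above 30% in a dose series; inconclusive means first-round hits that could not be retested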;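 further: growth measured after seven days incubation then overnight dye step; 0% = bacteria only wells and 100% = bacteria with antibiotic; twin plates without the antibiotic show which effects depend on it; some results filed as inactive read as strong as hits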
Arbovirus anti repeat: further read-out of Arbovirus anti, marked with its call; inhibition, %; measured here: 10K subset replicate screen; many hits read low in the repeat;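 first of two repeat runs on a subset; 0% = infected and 100% = uninfected wells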
* = called active by the depositor; ? = inconclusive; · = no result given. This is a subset; rates above refer to the full screens.

SMILES	Arbovirus anti	RecA splice inh	Mtb H37Rv	YopH inh	Mtb bLac sens	others
COc1ccc(CN(CC2CCCO2)C(=O)c2cc3sccc3n2C)c(OC)c1 (stereo not given)	16	12	-12%	·	-1
CCOC(=O)NC(=S)Nc1ccc(C(C)(C)C)cc1	·	2.6	8%	·	79
COc1ccc(/C=N/NC(=O)c2nc(-c3ccccc3)n(-c3ccccc3)n2)c(O)c1	-20	1.5	5%	-50	-6
O=C1NC(=O)C(=Cc2cn(CCOc3ccc4c(c3)OCO4)c3ccccc23)C(=O)N1	-7	-6.7	3%	-16	24
COCCCNC(=O)Cn1cc2c(n1)CCCCC2	-1	-1.3	-3%	-11	-2	Arbovirus anti repeat=4
CCCC[C@@H]1C[C@H]1[C@@H](NC(=O)c1cccs1)c1ccc(C(F)(F)F)cc1	·	2.2	-11%	·	-6
CCCCNC(=O)c1ccc(C)c(NC(=O)C2=C(C)OCCS2)c1	·	-0.1	·	·	-6
CCC(=O)N1CCc2cc(S(=O)(=O)N3CCN(c4ccccn4)CC3)ccc21	5	1.1	1%	-13	-5
S=c1nc(-c2ccccc2)n(Cc2cccnc2)c2c1CCCC2	·	0.6	-8%	·	0
Oc1c(Cl)cc(Cl)cc1C1Nc2ccccc2-n2cccc21 (stereo not given)	·	-1.3	-5%	·	3
COc1cc(CNCCN2CCOCC2)ccc1OCc1cccc(Cl)c1	-29	-1.1	-4%	-14	10
Cc1[nH]c2c(Cl)cccc2c(=O)c1CN1CCCCCC1	·	0.6	·	·	5
Brc1ccc(-c2cnc3n2CCCC3)cc1	6	0.9	-9%	19	70
COCCCC1CCN(C(=O)C2CCC(=O)N(C3CCCC3)C2)CC1 (stereo not given)	·	-6.1	·	·	-2
COCCn1c(=N)c(S(=O)(=O)c2ccc(Br)cc2)cc2c(=O)n3ccccc3nc21	·	-17	·	·	1
CS(=O)(=O)c1nc(S(=O)(=O)c2ccc(Cl)cc2)c(NCCN2CCOCC2)s1	·	-3.0	·	·	5
CCc1cccc(CC)c1NC(=O)CN1CC(C)SC1=NC1CCCCC1 (stereo not given)	14	-1.0	17%	18	-3
NNC(=O)c1ccc(COCC(F)(F)C(F)F)cc1	·	1.5	-3%	·	24
CCC(C)NC(=O)C1c2ccccc2C(=O)N1Cc1ccc(OC)cc1OC (stereo not given)	21	2.2	-4%	-11	-4
COc1ccc2[nH]c(=O)c(CN(Cc3cccnc3)Cc3nnnn3CC3CCCO3)cc2c1 (stereo not given)	·	0.2	-10%	·	3
CCCCc1cc(=O)oc2cc(OCC(=O)N3C[C@H]4C[C@@H](C3)c3cccc(=O)n3C4)ccc12	·	-0.9	·	·	-1
COc1nc(Nc2ccc(C(C)=O)cc2)nc(OC)n1	-6	-1.6	1%	-2	2	Arbovirus anti repeat=-4
CN1C(=O)c2ccccc2N(C)C1c1ccccc1Cl (stereo not given)	-4	-6.8	1%	·	-2
Cc1ccc(S(=O)(=O)Nc2ccccc2N2CCOCC2)cc1	·	-0.1	·	·	-4
COC(=O)c1ccc(Sc2nnnn2-c2ccccc2)c([N+](=O)[O-])c1	-7	25	-6%	-38	99
O=C(OC1CCOC1=O)c1ccc(-c2nc3ccccc3s2)s1 (stereo not given)	2	-4.9	-11%	-1	57
CC(C)(C)C(=O)NC1CCN(CC(=O)Nc2ccc3c(c2)OCO3)CC1	·	-0.1	·	·	-6
COCCNC(=O)CCc1nnc(C2(c3ccc(Cl)cc3)CCC2)o1	7	-0.4	3%	·	0
O=C(N1CCOCC1)N1CCN(S(=O)(=O)c2ccc(Cl)cc2)C1	·	-1.3	·	·	0
CCCCc1c(O)nc2n(c1=O)CCS2	4	-0.4	0%	-35	?
CCOC(=O)C1CCCN(c2c(NCCN(C)Cc3ccccc3)c(=O)c2=O)C1 (stereo not given)	5	0.9	1%	-47	-7
c1csc(-c2nc3ccccc3s2)c1	·	0.2	0%	·	4
CCOC(=O)c1cc(-c2csc(COc3ccc(Cl)cc3)n2)on1	·	0.1	<0.2µM*	·	100
CCCCCn1c(=O)c2ccccc2n2c(=S)[nH]nc12	·	3.3	·	·	-2
O=C(CN1CCCC1)Nc1ccc(F)c(Cl)c1	·	0.4	·	·	-2
Cc1cccc2cc(CN(CC3CCCO3)C(=O)c3ccncc3)c(=O)[nH]c12 (stereo not given)	6	1.7	4%	-30	?
COc1cc2c(c(O)c1OC)C(=O)C(OC)CCC2 (stereo not given)	9	-0.3	6%	-22	-2	Arbovirus anti repeat=0
O=C(NC1CCCCCC1)C(=S)N1CCCC1	2	2.2	5%	·	-5
Cc1c(C(=O)NCC2CCCO2)sc2nc(-c3ccccc3)cn12 (stereo not given)	-16	0.0	0%	-4	5	Arbovirus anti repeat=-13
O=C(NC1CCS(=O)(=O)C1)c1sc2ccccc2c1Cl (stereo not given)	3	-0.5	-4%	·	-5
COc1ccc(N2CCN(C(=O)CCN3C(=O)c4ccccc4S3(=O)=O)CC2)cc1	5	-1.1	-5%	-33	-1
COc1ccc(C(CC(=O)N2CCN(C)CC2)NC(=O)C(F)(F)F)cc1 (stereo not given)	·	0.7	·	·	-5
CN(C)C(=S)NC(=O)c1cccc(Cl)c1	0	0.5	56%	·	99
COc1cc2oc3cc(C)oc(=O)c3c2cc1OC	·	-0.7	-2%	·	3
O=c1c(/C=N/N2CCOCC2)c(C(F)(F)F)[nH]n1-c1ccccc1	1	-2.2	-7%	·	3
Cc1cc(C)c2c(c1)N[C@H](c1cccs1)[C@@H]1CCO[C@H]21	·	-2.9	10%	·	7
O=C(Nc1ccccc1)c1ccc(=O)[nH]n1	·	3.2	·	·	2
COc1cccc2c1c(NC(=O)Nc1ccc(F)cc1F)nn2C	·	-3.1	2%	·	65
Cc1ccc(NC(=O)C(CC(=O)O)C2CCCO2)c(C)c1 (stereo not given)	·	3.5	·	·	6
CSCCC(NC(=O)c1ccco1)C(=O)N1CC=C(c2ccccc2)CC1 (stereo not given)	·	3.9	·	·	-12
COc1ccc(C(=O)N/C(=C/c2cccs2)C(=O)NN)cc1OC	·	6.4	-5%	·	5
CCOC(=O)C1CCCN(S(=O)(=O)c2cc(Br)cc3c2N(C(=O)C2CC2)CC3)C1 (stereo not given)	5	-5.3	-2%	-8	-12
CC(C)C1Nc2ccc(C(=O)NCc3ccco3)cc2NC1=O (stereo not given)	·	0.3	·	·	1
CCOc1ccc(NC(=O)CCC(=O)N2CCSc3ccccc32)cc1	·	1.9	·	·	-6
COCC(=O)Nc1cc(C)cn(Cc2ccccc2Cl)c1=O	·	-0.4	·	·	2
O=C1CN=C(Nc2ccccc2Cl)N1c1ccccc1	0	2.1	-6%	0	-14
CCOc1ccc(NC(=O)CCN2CCN(S(=O)(=O)c3ccc(OC)cc3)CC2)cc1	4	-1.9	33%	-3	8
Cc1ccc(C(=O)N2CCN(c3cnn(C)c(=O)c3Cl)CC2)cc1	5	-1.9	7%	·	-3
CCC1S/C(=C(\C#N)C(N)=O)N(c2ccc(F)cc2)C1=O (stereo not given)	-1	8.2	-4%	-22	-7
Fc1ccc(N2N=C(c3cccs3)CC2c2ccco2)c(F)c1 (stereo not given)	3	-2.1	2%	9	35

At a glance, 5 of the compounds above.
SMILES	Arbovirus anti	RecA splice inh	Mtb H37Rv	YopH inh	Mtb bLac sens	others
Cc1ccc(NC(=O)C(CC(=O)O)C2CCCO2)c(C)c1 (stereo not given)	·	3.5	·	·	6
CSCCC(NC(=O)c1ccco1)C(=O)N1CC=C(c2ccccc2)CC1 (stereo not given)	·	3.9	·	·	-12
COc1ccc(C(=O)N/C(=C/c2cccs2)C(=O)NN)cc1OC	·	6.4	-5%	·	5
CCOC(=O)C1CCCN(S(=O)(=O)c2cc(Br)cc3c2N(C(=O)C2CC2)CC3)C1 (stereo not given)	5	-5.3	-2%	-8	-12
CC(C)C1Nc2ccc(C(=O)NCc3ccco3)cc2NC1=O (stereo not given)	·	0.3	·	·	1

(next part)
SMILES	Arbovirus anti	RecA splice inh	Mtb H37Rv	YopH inh	Mtb bLac sens	others
CCOc1ccc(NC(=O)CSc2ccc(-c3ccco3)nn2)cc1	·	3.4	·	·	42
COc1cc(C2OCC3C(c4ccc(OC5OC(CO)C(O)C(O)C5O)c(OC)c4)OCC23)ccc1O (stereo not given)	2	-4.5	-5%	·	-6
CCC(=O)N(Cc1ccc(C)cc1)Cc1cc2cc3c(cc2[nH]c1=O)OCO3	-12	-0.6	-3%	-5	19
O=C(CSc1ccc(Cl)cc1)NCc1ccco1	-1	-3.5	1%	·	0
CC(C)(C)CC(C)(C)NCC(O)COCCOc1ccc(Br)cc1 (stereo not given)	-30	-1.4	17%	-13	43
N#Cc1ccsc1NC(=O)c1cccc(-n2cnnn2)c1	·	1.4	·	·	8
COc1cc(SC#N)ccc1N=Cc1c(C)[nH]n(-c2cccc3ccccc23)c1=O	-4	-2.5	39%	-28	51
Cc1ccc(NC(=O)CC2S/C(=N/N=C/c3c[nH]c4ccccc34)NC2=O)cc1 (stereo not given)	-15	-0.4	5%	0	2
C=CCn1c(C)cc(-c2csc(NC)n2)c1C	13	·	7%	·	·
Cc1cccc(C)c1NC(=O)N1CCCC1C(=O)Nc1ccc(-n2cnnn2)cc1 (stereo not given)	0	-1.5	7%	·	6
COc1ccc(N(C(C)=O)S(=O)(=O)c2cccs2)cc1	-3	1.0	5%	-87	-4
CC(=C1C(=O)c2ccccc2C1=O)N1CCN(C/C=C/c2ccccc2)CC1	-4	0.7	-17%	-1	-20

Some of these compounds in order of length of the SMILES, rising.
SMILES	Arbovirus anti	RecA splice inh	Mtb H37Rv	YopH inh	Mtb bLac sens	others
C=CCn1c(C)cc(-c2csc(NC)n2)c1C	13	·	7%	·	·
Cc1cccc(C)c1NC(=O)N1CCCC1C(=O)Nc1ccc(-n2cnnn2)cc1 (stereo not given)	0	-1.5	7%	·	6
COc1cc(C2OCC3C(c4ccc(OC5OC(CO)C(O)C(O)C5O)c(OC)c4)OCC23)ccc1O (stereo not given)	2	-4.5	-5%	·	-6

Next section:
SMILES	Arbovirus anti	RecA splice inh	Mtb H37Rv	YopH inh	Mtb bLac sens	others
Cc1ccc(/C=N/Nc2nnc(Cc3ccccc3)c(=O)[nH]2)o1	6	0.8	7%	·	0
COc1cccc(NC(=O)Cn2c(=O)n(CCC(=O)NCc3ccco3)c(=O)c3ccccc32)c1	-7	-3.8	-11%	·	-3
COc1ccc(NC(=O)N(CCCN(C)C)Cc2cc3cc(OC)ccc3[nH]c2=O)cc1	-2	-2.9	-9%	-28	2
COc1ccc(CNC(=O)C(c2ccco2)N(C(=O)c2ccccn2)c2ccccc2)cc1 (stereo not given)	-2	2.8	-7%	·	-1
O=S(=O)(NC1CCCCCC1)c1ccc(Br)s1	6	2.5	-5%	-30	12
O=C(NCCc1ccccc1)C1CCN(S(=O)(=O)c2cccs2)CC1	1	-1.4	14%	-37	-3
COc1ccc(CCNC(=O)Cn2c(=O)n(Cc3ccco3)c(=O)c3ccc(Cl)cc32)cc1OC	14	1.2	2%	-40	·
O=C(Nc1nc(-c2cccc3ccccc23)cs1)c1ccc2c(c1)S(=O)(=O)c1ccccc1C2=O	-39	4.3	4%	·	-8
S=c1[nH]nc(COc2ccccc2)n1C1CCCCC1	2	2.4	1%	5	-6
Cc1nc2nc(CNC(=O)OC(C)(C)C)nn2c(C)c1CCC(=O)Nc1ccc2c(c1)OCO2	·	3.8	·	·	-1
COc1ccc(S(=O)(=O)Nc2c(C(=O)O)[nH]c3ccccc23)cc1OC	-4	2.0	-11%	-61	-4
O=C(CSc1ccc(Cl)cc1)Nc1ccc(N2CCN(C(=O)c3ccc(Cl)cc3)CC2)cc1	-6	-1.5	7%	-29	12
O=C(c1ccccc1)c1ccccc1C(=O)N1CCN(C(=O)c2ccccc2)CC1	12	-2.9	-1%	·	0
O=C(NCCc1ccccc1)c1c(O)c2cccc3c2n(c1=O)CC3	8	-1.4	-6%	-51	-8
Cc1ccc(-c2nnc(SCC(=O)Nc3ccc(N4CCOCC4)cc3)o2)cc1	-8	-2.1	20%	-49	78
COCC1CCCCN1C(=O)C1CCN(c2nc(-c3ccccc3)nc3c2CCC3)CC1 (stereo not given)	·	1.2	·	·	1
CCOC(=O)c1ccc(N2Cc3ccccc3C2=N)cc1	-4	-0.6	79%	2	73
O=C(NNC(=S)NC(=O)c1cccs1)c1ccc(NC(=O)c2ccccc2)cc1	-2	5.0	?	-31	75
O=C(NCc1ccccn1)C1CCCCC1	2	-10	5%	·	16
Cc1c(CCC(=O)O)c(=O)oc2cc3occ(-c4ccc(Br)cc4)c3cc12	·	4.0	·	·	91
CC(=O)Nc1ccc2nc(NS(=O)(=O)c3ccc(C)cc3)sc2c1	-6	-1.7	-3%	·	-13
CCn1c(Cl)c(C=O)s/c1=N\S(=O)(=O)c1ccccc1	·	89*	9%	·	-5
COC(=O)CCc1nc2ccccc2nc1OC	-7	0.0	-10%	·	3
COC(=O)Cc1ccc2c3ccccc3n(C)c2c1	9	-2.3	-16%	5	6
COc1cc(NC(=O)Cc2nn(C)c(=O)c3ccccc23)cc(OC)c1OC	9	-0.3	-4%	-21	-21

High-throughput results as filed in PubChem.
